# CSC inhib: cancer stem cell viability inhibitors, primary screen, luminescence | inhibition, % at 7.5 µM | cancer stem cell-like cells viability | AID 2717, 2010 | actives 1.1% (n = 300,000);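 active means mean at 75% or more and at least half the replicates too; inconclusive means mean and replicates disagree; tested in HMLE shEcad cells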;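 further: 0% = median of negative and 100% = median of positive control wells; the first replicate is given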
# HIV Env fusion: inhibitors of HIV-1 Env-driven cell-cell fusion, primary screen, HeLa-JRFL effector, CEM21 target cells, luciferase. inhibition, % at 12.3 µM. actives 1.1% (n = 360,000);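 active means mean replicate inhibition score of at least 50 and every replicate individually at or above 50; inconclusive means only one of the two criteria met; inactive means mean below 50 and not all replicates reaching 50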;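 further: 0% = plate neutral controls and 100% = maraviroc near 300 nM; one replicate is shown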
# eIF4H inh: human eIF4H binding inhibitors, primary screen, translation initiation inhibitor project, biochemical, uHTS, fluorescence polarization | actives 0.94% (n = 290,000) | eIF4H fluorescence polarization binding assay | Eukaryotic translation initiation factor 4H (Homo sapiens), Q15056 | AID 2012, 2009 | inhibition, % at 35 µM;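 active means 50% or more with normal probe brightness, or confirmed in later tests; inconclusive means above 50% with abnormal brightness, or retests that disagree; inactive means below 50% or failed in later tests; about a fifth of its hits are not listed in these tables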;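 further: calls also rest on retests at 20 µM and on dose response follow-up; 0% = protein and probe with vehicle and 100% = probe without protein; strong numbers were not always called active; many hits fall short of the cut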
# MT1-MMP act inh: blockers of MT1-MMP proenzyme processing, primary screen, HT1080 RFP-PRO-GFP cells, GFP/RFP fluorescence | GFP/RFP ratio change, % at 20 µM | GFP/RFP ratio fluorescence, overnight; percent of plate control window, DMSO zero | actives 0.061% (n = 360,000) | AID 651647, 2012;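 active means GFP/RFP ratio change of at least 30% with cell ATP level not reduced by more than half and red fluorescence within 50% of control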; further: strong numbers were not always called active
#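 Test system: HT1080 RFP-PRO-GFP cells; Benchmarks: DMSO and RFP-L50D-GFP cell wells; Timing: cells overnight before dosing, compound overnight, 37 °C, 5% CO2; Compound: one 20 µM compound dose with 1% DMSO; Read-out: GFP/RFP fluorescence ratio.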
# Yeast UUG start: modulators of yeast start codon fidelity, primary screen, whole organism, S. cerevisiae, single point, plate reader; activity score, % at 18.7 µM; AID 602363, 2012; actives 0.13% (n = 350,000); S. cerevisiae UUG-firefly luciferase reporter, luminescence/redox ratio;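 active means replicate mean at a twofold rise or more, about +100% in these data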;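 further: firefly luciferase made from a UUG start codon reports start codon fidelity; reporter light over untreated wells divided by growth signal over untreated wells; some hits fall short of that in this replicate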
# PABP FP inh: PABP poly(A) RNA binding inhibitors, primary screen, biochemical, fluorescence polarization, uHTS. Polyadenylate-binding protein 1 (Homo sapiens), P11940. inhibition, % at 35 µM. actives 1% (n = 290,000). AID 2014, 2009;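 active means 50% or more with normal probe brightness, or confirmed in later tests; inconclusive means above 50% with abnormal brightness, or retests that disagree; inactive means below 50% or failed in later tests; about a fifth of its hits are not listed in these tables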;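 further: calls also rest on retests at 20 µM and on dose response follow-up; controls were probe without protein and protein plus probe with vehicle; some compounds called inactive have numbers as strong as hits; many hits fall short of the cut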
# Rce1 inhib: yeast Rce1p protease inhibitors, primary screen, biochemical, fluorescence, cell-free homogeneous; actives 0.27% (n = 290,000); calls only; yeast membranes, quenched prenylated peptide cleavage fluorescence; AID 2563, 2010;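 active means fall in fluorescence gain of 50% or more versus controls, with final raw signal at or below 3038400; inconclusive means same 50% fall but final raw signal above 3038400; inactive means fall in fluorescence gain under 50%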;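 further: plate controls were neutral control wells for no effect and wells lacking membranes for full effect; tested at 10 µM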
# Target sequence (Q03530 whole entry, looked up): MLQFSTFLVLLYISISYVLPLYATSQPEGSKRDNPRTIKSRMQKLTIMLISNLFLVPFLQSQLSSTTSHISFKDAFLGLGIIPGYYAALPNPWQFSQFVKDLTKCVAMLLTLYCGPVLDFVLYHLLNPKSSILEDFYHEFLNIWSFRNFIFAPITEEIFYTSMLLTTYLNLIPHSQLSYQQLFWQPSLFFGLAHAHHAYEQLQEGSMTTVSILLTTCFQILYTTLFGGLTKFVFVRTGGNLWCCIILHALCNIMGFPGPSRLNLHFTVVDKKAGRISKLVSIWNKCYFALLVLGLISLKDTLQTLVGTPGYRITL
# eIF4H inh retest: also measured in eIF4H inh; calls as there; inhibition, %; compound at 20 µM; confirmation average;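 mean of two retest wells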
# PABP FP inh retest: also measured in PABP FP inh; calls as there; inhibition, %; compound at 20 µM; confirmation repeats;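 mean of two retest wells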
# MT1-MMP act inh RFP: further read-out of MT1-MMP act inh, marked with its call; RFP signal change, %; measured here: RFP expression control read;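 0 = vehicle wells; hits needed this value within 50% of zero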
# An asterisk follows results filed as active; i = inactive; ? = inconclusive; . = not tested or not shown; & = joins results of further samples. Hits appear at their usual frequency; overall some 2.9% were active at least once.
SMILES,CSC inhib,HIV Env fusion,eIF4H inh,MT1-MMP act inh,MT1-MMP act inh RFP,Yeast UUG start,PABP FP inh,Rce1 inhib,others
CCOC(=O)C1=C(C)NC2=C(C(=O)C(C(=O)OC)C(C)C2)C1c1ccc(OC)c(O)c1 (stereo unspecified),-0.4,-15.5,-5.9,0.6,1.3,-10.9,-6.1,i,
C=CCc1cccc(CNc2nc3ccccc3n2CCC)c1O,102.2*,27.9,-11.3,-7.5,-20.7,-11.6,6.1,i,
Cc1nnc(SCc2cc(=O)[nH]c(N3CCN(C)CC3)n2)s1,-9.9,-6.7,-2.1,0.6,5.2,-34.7,-11.3,i,
Cc1cc(OC(=O)c2ccccc2Br)cc(=O)n1C,-16.1,.,-8.4,0.5,4.4,-31.2,-9.8,i,
O=C1COc2ccc3ccccc3c2CN1,-7.2,i,-3.8,7.1,6.2,-26.6,5.5,i,
O=C1NC(c2ccccc2)=N/C1=C/c1ccco1,-13.3,-30.2,92.0,-4.9,-0.2,.,-28.8,i,eIF4H inh retest=-8.4;PABP FP inh retest=5.3
COc1ccc(CC(=O)Nc2nc3n(n2)C(c2ccccc2)CC(=O)N3)cc1OC (stereo unspecified),-17.9,.,0.7,0.3,2.8,-19.9,-0.8,i,
CCCn1c(=O)c2c(nc3n2CCN3Cc2ccco2)n(C)c1=O,-4.5,3.3,3.2,5.0,4.9,.,-2.1,i,
COc1cc(NC(=O)CCc2nnc3ccc(N4CCN(c5cccc(OC)c5)CC4)nn23)cc(OC)c1,2.5,10.4,-10.7,5.1,6.9,-12.3,10.9,i,
COc1cccc(-c2nnn(CC(=O)N3CCCCC3)n2)c1,-9.0,-1.7,-0.3,-1.4,1.9,-4.9,9.5,i,
Cc1ccc(/C=N/NC(=O)c2ccncc2)cc1,-6.5,-20.0,-6.5,-0.6,-8.0,-5.9,-0.2,i,
O=C(N/N=C/c1ccc(Br)s1)c1ccccc1[N+](=O)[O-],0.3,-50.5,-9.7,2.7,1.2,-11.4,-5.0,i,
CC(=O)Nc1ccc(S(=O)(=O)N2CCN(CC(O)COc3ccc4ccccc4c3)CC2)cc1 (stereo unspecified),-3.5,41.8,-4.3,-1.5,-16.6,4.6,-12.6,i,
CC(C)(C)OC(=O)N[C@@H](/C=C/c1ccccc1)C(=O)OC(C)(C)C,22.7,-11.1,.,-2.6,0.2,4.1,.,.,
Cc1ccc2nc(/N=C(\N)NC(=O)N3c4ccccc4Sc4ccccc43)nc(C)c2c1,24.7,-3.3,3.4,-11.0,-10.4,-23.9,-6.4,i,
CS(=O)(=O)N(Cc1ccccc1)c1ccccn1,-6.9,.,-1.5,1.7,-1.1,-14.9,0.1,i,
C/C(=N/NC(=O)CNC(=O)c1cccs1)c1ccc(Cl)cc1,8.6,-23.0,-0.9,-0.6,-1.2,-3.5,-5.4,i,
CCCCCCCC(=O)N1CCN(c2cc3c(cc2F)c(=O)c(C(=O)O)cn3CC)CC1,3.5,-0.9,-2.5,-1.4,-10.2,-35.9,-0.3,i,
COc1ccc(C(=O)C(C)[n+]2ccc(C)c3ccccc32)cc1[N+](=O)[O-] (stereo unspecified),-14.2,20.2,?,-64.2,7.4,-4.2,?,i,
O=C(CN(Cc1ccc(Br)cc1)S(=O)(=O)c1ccccc1)NCC1CCCO1 (stereo unspecified),-3.1,17.9,5.0,-1.7,-0.8,-16.1,-4.6,.,
Nc1ccccc1C(=O)N1CCCC1,-18.1,-13.8,4.7,1.7,0.4,-13.2,-14.0,i,
COc1ccc(S(=O)(=O)N2CCCCCC2)cc1C(=O)N(C)CC(=O)Nc1ccc(F)cc1,16.2,.,.,7.1,1.7,-4.5,.,i,
CN(CCOc1ccccc1)CC(=O)Nc1ccc(Br)cc1F,14.5,14.3,10.4,-1.3,3.3,-6.8,-1.3,i,
Cc1ccc(NC(=O)CSC2=NN3CCCC(=O)N=C3S2)cc1Cl,.,20.0,12.2,-2.3,-13.3,-12.9,48.4,i,
CCOc1ccc(OCC(=O)NCc2n[nH]c(=O)c3ccccc23)cc1,-8.4,-18.4,.,0.7,-0.9,-7.4,.,i,
CCCN(C(=O)C1CCN(S(=O)(=O)c2ccc(OC)c(OC)c2)CC1)C1CCS(=O)(=O)C1 (stereo unspecified),-6.6,.,.,-2.6,0.4,-15.4,.,i,
O=C(CN1c2cccc3cccc(c23)S1(=O)=O)Nc1ccccc1F,-16.1,15.4,2.3,1.7,-0.1,-16.2,10.5,i,
Cc1cc(Cl)c(S(=O)(=O)NCc2ccccc2)cc1OCC(N)=O,-5.7,-59.8,-9.6,0.2,-0.3,-12.0,-6.6,i,
CNC[C@H]1Oc2cc(Br)ccc2S(=O)(=O)N([C@H](C)CO)C[C@H]1C,.,-1.5,.,1.2,5.6,-6.9&6.2&8.9,.,.,
C[C@@H]1CN([C@@H](C)CO)C(=O)CCCn2nncc2CO[C@H]1CN(C)C(=O)Nc1ccc(F)cc1,.,34.3,.,0.9,4.5,-1.2&-2.1,.,.,
CN=c1sc(C(=O)Nc2ccccc2)c(C)n1C,2.0,-5.5,-6.3,-2.4,-0.8,.,11.4,i,
COc1nc(SC)nc(Cl)c1Cc1ccc(OC(C)C)cc1,-2.4,30.1,-6.4,0.0,-4.3,.,16.4,i,
O=C(CN1C(=O)c2ccccc2S1(=O)=O)N1CCc2ccccc21,-7.4,63.8*,2.3,5.1,2.9,-13.7,0.3,i,
Cc1cccc2cc(CN(CCCO)C(=O)Nc3cccc(Cl)c3)c(=O)[nH]c12,-4.3,.,-4.0,.,.,-5.2,-11.1,i,
Cc1ccc2nsnc2c1NC(=O)c1cccc([N+](=O)[O-])c1,.,.,-3.6,.,.,.,3.3,i,
CCc1ccc(OCc2cnc(Cl)s2)cc1,-14.3,-35.4,1.6,2.3,2.3,.,-10.3,i,
O=C(O)C1=C[C@H](c2cccs2)C[C@H](OCCCCO)O1,-4.0,21.6,-3.6,-0.4,2.5,-16.2,-1.5,i,
CCOC(=O)[C@H]1[C@H]2COc3ccc(C)cc3[C@@H]2N2C(=O)c3cc(C)ccc3NC(=O)[C@@]12C,.,-40.6,.,-4.0,-0.4,-1.9,.,.,
O=C(N/N=C/c1ccccc1O)/C(=C/c1ccccc1)CCO,.,10.0,-12.9,4.6,-3.4,-3.3,-0.9,i,
O=C(NNc1nc2ccccc2s1)c1ccccc1F,0.2,.,5.3,9.9,6.1,-23.4,-1.3,i,
O=S1(=O)N[C@H](c2ccccc2)C[C@H](c2ccc(C(F)(F)F)cc2)O1,-0.2,15.2,0.2,-0.2,1.0,-9.2,-3.9,i,
CC(C)NC(=O)CSCc1c(Cl)cccc1Cl,2.8,-54.2,-13.3,12.9,3.8,4.9,-7.4,i,
CC/C=C/C(=O)N1CC2(CC(c3cccc(NC(=O)c4ccccc4)c3)=NO2)C[C@@H]1C(N)=O (stereo partly specified),-14.2,-5.8,-7.0,0.3,5.2,11.3,1.9,i,
CCOc1cc(/C=C2\CN(CC)C/C(=C\c3ccc(O)c(OCC)c3)C2=O)ccc1O,.,66.6*,-13.0,-10.4,-22.6,-3.9,-1.3,i,
O=C(COC(=O)c1cc(=O)[nH]c2ccccc12)NCc1cccc(Cl)c1,.,-1.1,.,-1.9,-1.5,-4.9,.,.,
C=CCN1N=C(/C=C/c2ccc(OC)cc2)CCC1=O,-9.6,-15.7,-5.5,-1.1,-4.5,-1.0,-1.2,i,
CC(=O)c1ccc(NC(=O)CSc2nc(=O)n(CCN3CCOCC3)c3c2CCC3)cc1,-13.6,-1.4,.,-2.3,-0.1,-6.7,.,i,
COc1ccc(C(=O)N/C(=C\c2cn(C)c3ccccc23)C(=O)NCCCn2ccnc2)cc1,-13.0,-13.8,-6.8,-0.6,2.0,-5.5,1.4,i,
Cc1ccc(Cc2ccc(C(=O)NNC(N)=S)o2)cc1,7.3,4.2,9.4,4.5,3.9,-23.7,3.3,i,
CC(=O)c1ccc(OCc2ncc(C(F)(F)F)cc2Cl)cc1,6.8,-27.6,-7.1,-1.4,-3.5,.,-5.9,i,
NS(=O)(=O)c1ccc(NC(=S)NCc2ccco2)cc1,-7.0,0.5,-5.8,-3.7,4.4,.,4.4,i,
COc1ccc(C(=O)N/C(=C/c2ccco2)C(=O)NCc2ccco2)cc1,-10.7,-0.4,2.1,-5.1,-0.2,-20.3,8.0,.,
COc1ccc(NC(=S)N2CCCC2)cc1OC,-1.8,-18.4,1.5,1.0,2.8,.,-5.6,i,
COc1ccccc1-c1ccc(Nc2cccc(C(C)=O)c2)nn1,-2.5,.,-3.6,12.7,-1.8,-10.8,7.4,i,
Cc1onc(-c2ccccc2Cl)c1C(=O)Nc1ccc(-n2nncc2-c2ccco2)cc1,.,.,-2.5,2.0,-10.2,-6.1,-3.6,.,
COc1ccccc1CN1CC(C(=O)N(C)Cc2[nH]c3ccccc3c2C)CCC1=O (stereo unspecified),4.3,.,-7.9,-0.3,-0.7,6.2,-8.1,i,
CN1C(=O)CC(N2CCN(c3ncccn3)CC2)C1=O (stereo unspecified),-11.2,-38.2,-4.8,6.6,8.0,-12.0,8.3,i,
COc1cc(OC)cc(-c2nc(N)n[nH]2)c1,-15.6,.,0.2,-1.0,4.2,-19.4,10.0,i,
CCC(OC(=O)c1cccs1)C(=O)NC1CCCCC1 (stereo unspecified),-7.3,-36.7,-0.7,4.5,3.5,.,1.5,i,
CC1CCN(CC(=O)N2CCc3ccccc32)CC1,-2.8,-7.3,8.5,2.3,5.7,-13.8,-8.9,i,
# More structures
SMILES,CSC inhib,HIV Env fusion,eIF4H inh,MT1-MMP act inh,MT1-MMP act inh RFP,Yeast UUG start,PABP FP inh,Rce1 inhib,others
N#CCOc1ccccc1/C=C/c1nc2ccccc2c(=O)[nH]1,-1.2,-34.3,-9.2,-1.7,-2.5,6.6,2.8,i,
O=C(CC(c1ccccc1)c1cc(Cl)ccc1O)N1CCCC1 (stereo unspecified),-1.7,11.9,2.8,-10.6,-5.7,18.7,14.7,i,
CN1C(C(=O)NCC2CC2)CC2Cn3c(nc4cc5ccccc5cc43)C21 (stereo unspecified),-12.8,16.3,18.8,0.2,-3.2,-6.4,-8.5,i,
O=C(COc1cccc2ccccc12)Nc1ccc(Cl)cc1C(=O)O,-0.2,22.8,-7.1,-0.5,-1.7,-6.9,11.0,i,
COc1ccccc1C1C2=C(CC(C)(C)CC2=O)N(CC(=O)O)C2=C1C(=O)CC(C)(C)C2,-12.5,-0.4,2.4,-1.4,2.9,11.8,2.8,i,
CC(C)CC(=O)Nc1nnc(S(=O)(=O)N2CCc3ccccc32)s1,-5.9,9.7,4.4,5.2,-3.7,-6.0,-10.8,i,

# Bioassay records as filed in PubChem BioAssay.
